From PubChem BioAssay
GLA inh pH 4.5 = alpha-galactosidase A (human) inhibition, pH 4.5 | P06280 | purified enzyme, 4-MU-alpha-Gal fluorescence, pH 4.5 | activity change, negative = inhibition, % at 105 µM | 230,000 tested, under 10 active; inconclusive = small, poorly fitted or top-dose-only inhibition, or a rising curve; inactive = flat fitted curve, though single readings scatter; no compound was filed as active;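 also: 0% = full activity with enzyme and -100% = basal without enzyme; dose as in the result columns while the protocol names 77 µM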
Target sequence (P06280 whole entry, looked up): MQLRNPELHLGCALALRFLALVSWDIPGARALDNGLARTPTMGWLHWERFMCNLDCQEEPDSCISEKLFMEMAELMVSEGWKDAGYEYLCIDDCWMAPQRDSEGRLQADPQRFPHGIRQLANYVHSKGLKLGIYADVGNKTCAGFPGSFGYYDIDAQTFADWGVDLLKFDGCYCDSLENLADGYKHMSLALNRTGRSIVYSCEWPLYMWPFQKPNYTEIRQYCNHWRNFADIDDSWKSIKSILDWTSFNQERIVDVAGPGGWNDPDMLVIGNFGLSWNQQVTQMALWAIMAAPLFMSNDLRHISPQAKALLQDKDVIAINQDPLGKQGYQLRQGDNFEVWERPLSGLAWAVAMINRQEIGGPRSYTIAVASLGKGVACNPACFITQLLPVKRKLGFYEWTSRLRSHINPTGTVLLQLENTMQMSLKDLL
miR-21 FLuc = raises the signal of a miR-21 reporter; HeLa miR-21 FLuc reporter, luciferase, 48 h; AID 2288; Potency, µM (top dose mostly 38.3 µM), for inactives: at the highest dose reporter change, positive = more light; 340,000 tested, under 10 active; active = well fitted rising curve with a large enough effect; inconclusive = small, poorly fitted or top-dose-only effect; inactive = no such curve, though single readings can be large or run the other way;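 also: % of control where 0% means no effect; miR-21 action dims this reporter so a rising signal means less miR-21 action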
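Luminescence from a firefly luciferase reporter carrying a miR-21 binding site downstream, stably expressed under a CMV promoter in HeLa cells that make miR-21 endogenously, reports miRNA modulation after 48 h compound exposure up to approximately 40uM final.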
Rango complex inh = inhibitors of Rango-importin beta complex formation; Potency, µM (titrated, usually from 92.2 µM), without a hit: at the highest dose inhibition of complex formation; 0.031% of 340,000 active; AID 540263; Rango CFP/YFP FRET sensor + importin beta, 45 min; active = rising FRET ratio curve, often small or poorly fitted; inconclusive = mostly compound fluorescence or quenching in the first reads; inactive = flat curves in all reads;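 also: potency is read from the fitted curve at half-maximal effect; 0% = DMSO wells and 100% = buffer wells lacking importin beta; nearly all actives have a fitted effect of over 15% in size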
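FRET biosensor Rango (snurportin 1 IBB between N-terminal EYFP and C-terminal Cerulean), 50 nM in PBS/1 mM DTT/0.02% Tween-20/0.1% BSA, preincubated 5 min RT with compound; 0.125 microM importin beta added, 45 min RT, CFP/YFP FRET ratio read.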
Rango release inh = inhibitors of RanGTP-induced Rango-importin beta complex dissociation; O95149+P62826; Biochemical FRET Rango-importin beta, RanGTP-induced dissociation; Potency, µM (top dose mostly 46.1 µM), without a hit: at the top dose activity change, negative = inhibition; 0.071% of 340,000 active; active means falling FRET ratio curve, often poorly fitted, with flat reads before Ran was added; inconclusive means other falling curves, or compound fluorescence or quenching; inactive means flat or rising ratio curve;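 also: potency is read from the fitted curve at half-maximal effect; % of control where 0% means no effect; nearly all actives have a fitted effect of over 45% in size; -100% = wells without RanGTP and RCC1; the record marks most hits as doubtful in a second field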
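Compounds sat 5 min at room temperature with 0.1 uM Rango biosensor plus 0.25 uM importin beta, then FRET pre-read. RanGTP-RCC1 (0.6 uM Ran, 2mM GTP, 0.2 uM RCC1) added for 45 min, and the CFP/YFP post-read measured blocked complex dissociation.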
The depositor's hits bear a star. Only part of the results is shown (hit frequency here may not be typical).

For OC[C@H]1OC(Nc2ccc(N=Nc3ccccc3)cc2)[C@@H](O)[C@@H](O)[C@@H]1O (stereo partly drawn) the results were GLA inh pH 4.5 -6.4, miR-21 FLuc -30.4%, Rango complex inh -1.7% and Rango release inh -4.0%.
For Clc1ccc(-c2nnc3n2CCCS3)cc1 the results were GLA inh pH 4.5 2.9, miR-21 FLuc 2.1%, Rango complex inh 2.9% and Rango release inh -8.6%.
For O=C(Nc1cccc(F)c1)C1CCCN(c2cnccn2)C1 (stereo not drawn) the results were miR-21 FLuc -8.6%, Rango complex inh -0.2% and Rango release inh 2.8%.
For COc1ccc(OC)c(CCNC(=O)Cc2ccc(NC3=NC4CS(=O)(=O)CC4S3)cc2)c1 (stereo not drawn) the results were miR-21 FLuc -0.3%, Rango complex inh -0.9% and Rango release inh -3.4%.
`C(=C\c1ccco1)/c1nc2ccccc2[nH]1` gave GLA inh pH 4.5 0.6, miR-21 FLuc -10.1%, Rango complex inh inconclusive and Rango release inh -16.9%.
`CN(CCO)CCOCCOc1cccc2ccccc12` gave GLA inh pH 4.5 -2.6, miR-21 FLuc -5.3%, Rango complex inh 0.2% and Rango release inh -7.6%.
Screening O=C1CN2CCC1C/C2=C\c1ccnc2c(Cl)cccc12 (stereo not drawn) returned GLA inh pH 4.5 5.9, miR-21 FLuc 3.4%, Rango complex inh 1.4% and Rango release inh -14.3%.
Cc1cc(C)c(C#N)c(SCC(O)COc2ccc(Br)cc2)n1 (stereo not drawn) was read as miR-21 FLuc 3.0%, Rango complex inh -0.5% and Rango release inh -8.3%.
O=[N+]([O-])c1cc(F)c(N2CCOCC2)cc1N1CCCCC1 was read as GLA inh pH 4.5 -28.8, miR-21 FLuc -21.3%, Rango complex inh 4.9% and Rango release inh 10.1%.
For N#CCc1cnc2ccccc2n1 the results were GLA inh pH 4.5 4.9, miR-21 FLuc -20.7%, Rango complex inh inconclusive and Rango release inh inconclusive.
Screening NC(CSCc1cccc(Br)c1)C(=O)O (stereo not drawn) returned GLA inh pH 4.5 1.7, miR-21 FLuc -4.4%, Rango complex inh -1.6% and Rango release inh -4.1%.
Nc1nc(NCCO)nc(NCC2CCCO2)c1[N+](=O)[O-] (stereo not drawn) was read as GLA inh pH 4.5 -2.8, miR-21 FLuc -7.7%, Rango complex inh 1.6% and Rango release inh 0.0%.
`Cn1c(N/N=C2\CCCc3ccccc32)nc2c1c(=O)n(Cc1ccc(F)cc1)c(=O)n2C` gave GLA inh pH 4.5 4.8, miR-21 FLuc 0.3%, Rango complex inh 0.1% and Rango release inh -24.8%.
COc1ccc(NC(=O)c2ccc3c(c2)OCCO3)cc1OC was read as miR-21 FLuc -47.1%, Rango complex inh 3.0% and Rango release inh 0.8%.
For Cc1ccc(S(=O)(=O)N2CCC(C(=O)NCCN3CCOCC3)CC2)cc1C the results were miR-21 FLuc -0.3%, Rango complex inh -4.8% and Rango release inh 15.6%.
Screening COc1ccc(CN2C(=O)[C@@H]3Cc4c([nH]c5ccccc45)C(C)(C)N3C2=O)cc1 returned Rango complex inh -0.6% and Rango release inh 4.2%.
COc1cc2c(cc1OC)C(C1(O)CCCCC1)NCC2 (stereo not drawn) was read as GLA inh pH 4.5 -0.5, miR-21 FLuc -0.3%, Rango complex inh -1.4% and Rango release inh 9.5%.
Screening NC(=O)NC(c1ccccc1)c1cccc2ccccc12 (stereo not drawn) returned GLA inh pH 4.5 -6.0, miR-21 FLuc -1.5%, Rango complex inh -0.2% and Rango release inh 0.5%.
For C/C=C/c1ccc(OCC(=O)Nc2ccncc2)c(OC)c1 the results were miR-21 FLuc -4.8%, Rango complex inh -1.3% and Rango release inh -2.4%.
For COc1ccc(C)cc1NC(=O)c1ccc2c(c1)C(=O)N(Cc1ccncc1)C2=O the results were Rango complex inh 5.6% and Rango release inh -1.8%.
`O=C(O)CCCC(=O)N1CCN(c2ncccn2)CC1` gave GLA inh pH 4.5 0.0, miR-21 FLuc -2.2%, Rango complex inh 1.7% and Rango release inh -2.6%.
For Cc1ccc(S(=O)(=O)Nc2ccc3c(c2)n(C)c(=O)n3C)c(C)c1 the results were GLA inh pH 4.5 6.6, miR-21 FLuc -0.2%, Rango complex inh -3.4% and Rango release inh -6.8%.
CCCN(CC(=O)Nc1ccccc1OC)C(=O)c1cccc(S(=O)(=O)Nc2ccc(OC)cc2)c1 was read as Rango complex inh 1.7% and Rango release inh 2.7%.
Screening COc1cc2c3c(n(C)c(=O)c2cc1OC)-c1cc2c(cc1C3=O)OCO2 returned Rango complex inh -3.2% and Rango release inh -9.6%.
For CCOCCCNC(=O)Cn1cnc2sc(C)c(S(=O)(=O)N3CCN(c4ncccn4)CC3)c2c1=O the results were GLA inh pH 4.5 -5.7, miR-21 FLuc 2.5%, Rango complex inh 0.3% and Rango release inh 2.0%.
For CCN(CC)C(=O)[C@H]1CC(CC(=O)NCCCn2ccnc2)C(=O)N2CCc3c([nH]c4ccc(OC)cc34)[C@]12C (stereo partly drawn) the results were Rango complex inh -0.3% and Rango release inh 30.2%.
Screening C=CCn1c(SCC(N)=O)nnc1-c1cc(Br)ccc1O returned GLA inh pH 4.5 -6.6, miR-21 FLuc 1.7%, Rango complex inh -2.3% and Rango release inh -11.0%.
For c1ccc2c(c1)nc1n2C2(N3CCOCC3)CCCC2C1N1CCOCC1 (stereo not drawn) the results were GLA inh pH 4.5 -3.4, miR-21 FLuc -18.9%, Rango complex inh 0.6% and Rango release inh 6.9%.
Screening S=C(NCc1ccccc1)N1CCc2ccccc2C1 returned GLA inh pH 4.5 1.2, miR-21 FLuc -5.5%, Rango complex inh -4.5% and Rango release inh 6.0%.
`CC1CCc2c(sc3ncn(CC(=O)N=Nc4c(O)[nH]c5ccccc45)c(=O)c23)C1` (stereo not drawn) gave GLA inh pH 4.5 7.5, miR-21 FLuc -0.1%, Rango complex inh -1.8% and Rango release inh -6.0%.
`CCN(CC(=O)N1CCOCC1)S(=O)(=O)c1cc(Cl)ccc1Cl` gave miR-21 FLuc -4.7%, Rango complex inh -1.2% and Rango release inh -16.1%.
Screening COc1cc(NS(=O)(=O)c2ccc(N/C=C\C(=O)c3ccc(C)cc3)cc2)nc(OC)n1 returned Rango complex inh inconclusive and Rango release inh inconclusive.
`Cc1cc(C(=O)Nc2ccccc2Cl)c2ccccc2n1` gave miR-21 FLuc -6.2%, Rango complex inh 0.3% and Rango release inh -6.2%.
For CCn1c(SCC(=O)Nc2ccccc2)nnc1-c1cccs1 the results were GLA inh pH 4.5 1.6, miR-21 FLuc -14.9%, Rango complex inh 0.7% and Rango release inh -13.2%.
For O=C(NNC(=O)c1cc(Br)ccc1Cl)c1csc(N2CCOCC2)n1 the results were miR-21 FLuc -14.7%, Rango complex inh 0.3% and Rango release inh 5.3%.
`CCOC(=O)/C(C#N)=C1/C(=O)N(Cc2ccccc2)c2ccccc21` gave GLA inh pH 4.5 -3.2, miR-21 FLuc 1.1%, Rango complex inh -0.1% and Rango release inh 7.3%.
For COc1cc(/C=N/NC(=O)c2nnn(-c3nonc3N)c2-c2cccs2)ccc1O the results were miR-21 FLuc 3.5%, Rango complex inh -4.4% and Rango release inh 16.6%.
Cc1cn(S(=O)(=O)c2ccc(Br)c3ccccc23)cn1 was read as GLA inh pH 4.5 -0.3 and miR-21 FLuc -3.9%.
For CCOC(=O)c1[nH]cnc1C(=O)NC1CCCCC1 the results were GLA inh pH 4.5 2.3, miR-21 FLuc -6.2%, Rango complex inh -1.3% and Rango release inh -5.9%.
Screening CSc1nsc(/C=C/Nc2ccc(C)c(C)c2)c1C#N returned GLA inh pH 4.5 -4.2, miR-21 FLuc -12.9%, Rango complex inh inconclusive and Rango release inh inconclusive.
Screening Cc1onc(-c2c(F)cccc2Cl)c1C(=O)Nc1cccc(S(=O)(=O)NC2=NCCC2)c1 returned Rango complex inh -1.1% and Rango release inh -10.7%.
COCCn1c(SCC(=O)NC2CCCCC2C)nc2ccccc2c1=O (stereo not drawn) was read as miR-21 FLuc -0.6%, Rango complex inh -0.1% and Rango release inh 7.6%.
`CC1=C(C(=O)Nc2cc(C)ccn2)C(c2cnn(C)c2)C2=C(CC(c3ccccc3)CC2=O)N1` (stereo not drawn) gave GLA inh pH 4.5 8.0, miR-21 FLuc -4.2%, Rango complex inh inconclusive and Rango release inh -22.4%.
For O=C(Cc1nc(=O)c2ccccc2s1)Nc1ccccc1 the results were GLA inh pH 4.5 0.6, miR-21 FLuc -58.3%, Rango complex inh inconclusive and Rango release inh -25.1%.
COc1cc(/C=N/NC(=O)CN2CCCCC2)ccc1OCc1ccc(Br)cc1 was read as GLA inh pH 4.5 -13.8, miR-21 FLuc -37.7%, Rango complex inh 2.9% and Rango release inh -20.2%.

Looked up by structure from the list above, two records:
Cc1cn(S(=O)(=O)c2ccc(Br)c3ccccc23)cn1 was read as GLA inh pH 4.5 -0.3 and miR-21 FLuc -3.9%.
For COc1cc(/C=N/NC(=O)c2nnn(-c3nonc3N)c2-c2cccs2)ccc1O the results were miR-21 FLuc 3.5%, Rango complex inh -4.4% and Rango release inh 16.6%.

(cont.)
`CCCn1c(NC(=O)c2ccc(F)cc2)nc2ccccc21` gave GLA inh pH 4.5 4.6, miR-21 FLuc -0.8%, Rango complex inh 0.2% and Rango release inh 10.0%.
`Cc1cccc(OCC(=O)OCC(=O)N2CCCc3ccccc32)c1C` gave Rango complex inh -2.7% and Rango release inh 3.9%.
For O=C(CP(=O)(c1ccccc1)c1ccccc1)Nc1cccc(CP(=O)(c2ccccc2)c2ccccc2)c1 the results were GLA inh pH 4.5 3.2, miR-21 FLuc 3.8%, Rango complex inh 2.6% and Rango release inh 41.5%.
COCCCN=Cc1c(C)[nH]n(-c2ccc(Br)c(C)c2)c1=O was read as GLA inh pH 4.5 -10.9, miR-21 FLuc -32.3%, Rango complex inh 3.5% and Rango release inh 8.6%.
For O=C1C2C3CCC(C3)C2C(=O)N1Cc1ccco1 (stereo not drawn) the results were GLA inh pH 4.5 9.5, miR-21 FLuc -3.9%, Rango complex inh inconclusive and Rango release inh 1.5%.
CNC[C@@H]1Oc2ccc(NC(=O)Nc3c(C)noc3C)cc2CC(=O)N([C@H](C)CO)C[C@H]1C was read as Rango complex inh inconclusive and Rango release inh 14.0%.
Screening Cc1csc(NC(=O)CCC(=O)N(CC(=O)NC2CCCCC2)c2ccccc2)n1 returned miR-21 FLuc 3.1%, Rango complex inh -1.4% and Rango release inh 0.3%.
For Cn1c(=O)c2c(nc(NNC(=O)C(F)(F)F)n2C)n(C)c1=O the results were GLA inh pH 4.5 0.0, miR-21 FLuc 1.3%, Rango complex inh -0.6% and Rango release inh -0.2%.
Screening C#CCOCCOCCOCCNc1nc(N2CCN(C(=O)Cn3cc(CCCCN)nn3)CC2)nc(N2CCN(C(=O)Cn3cc(CC(C)O)nn3)CC2)n1 (stereo not drawn) returned GLA inh pH 4.5 2.5, miR-21 FLuc -3.5%, Rango complex inh 1.3% and Rango release inh -6.4%.
`COc1cc(-n2cnnn2)ccc1S(=O)(=O)N1CCOCC1` gave GLA inh pH 4.5 -7.3, miR-21 FLuc 0.5%, Rango complex inh 4.2% and Rango release inh 0.7%.
`CCCCCC(=O)Nc1cccc(C2=NOC3(C2)C[C@@H](C(N)=O)N(C(=O)CC(c2ccccc2)c2ccccc2)C3)c1` (stereo partly drawn) gave GLA inh pH 4.5 -2.6, miR-21 FLuc inconclusive, Rango complex inh -4.1% and Rango release inh -22.5%.
`O=C(OCc1cccc(F)c1)c1cc2ccccc2cc1O` gave miR-21 FLuc -1.6%, Rango complex inh -1.0% and Rango release inh -7.9%.

Of the compounds above, 2 contain a furan ring, fused or not:
`C(=C\c1ccco1)/c1nc2ccccc2[nH]1` gave GLA inh pH 4.5 0.6, miR-21 FLuc -10.1%, Rango complex inh inconclusive and Rango release inh -16.9%.
For O=C1C2C3CCC(C3)C2C(=O)N1Cc1ccco1 (stereo not drawn) the results were GLA inh pH 4.5 9.5, miR-21 FLuc -3.9%, Rango complex inh inconclusive and Rango release inh 1.5%.
